High-throughput results (PubChem BioAssay)
HPGD block: qHTS Assay for Inhibitors of HPGD (15-Hydroxyprostaglandin Dehydrogenase); 15-hydroxyprostaglandin dehydrogenase [NAD(+)] (Homo sapiens), P15428; purified HPGD, NADH fluorescence kinetic, PGE2 substrate; Potency, µM, inactives show top-dose activity change, negative = inhibition, actives largely listed as inhibitors; actives 4.3% (n = 150,000); AID 894, 2007; active = well fitted inhibition curve with a large enough effect (not every such curve was filed as active); inconclusive = small, poorly fitted or top-dose-only effect, or another doubt; inactive = no such curve, though single readings can be large or run the other way;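 note: top concentration of the series not given in the record; plate controls included wells without enzyme; inactives centre near -10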
Target sequence (P15428 whole entry, looked up): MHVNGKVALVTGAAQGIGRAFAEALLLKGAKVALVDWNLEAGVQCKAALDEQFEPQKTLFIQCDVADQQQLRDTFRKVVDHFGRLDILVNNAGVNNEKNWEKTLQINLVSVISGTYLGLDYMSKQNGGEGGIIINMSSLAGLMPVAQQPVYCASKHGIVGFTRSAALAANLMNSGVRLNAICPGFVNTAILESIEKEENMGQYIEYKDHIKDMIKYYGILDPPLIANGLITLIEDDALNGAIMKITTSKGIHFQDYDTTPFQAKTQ
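20 nM HPGD preincubated 15 min at room temperature with compound in 50 mM Tris-HCl pH 8, 0.01% Tween 20. Started with 1 mM NAD+ and 30 uM prostaglandin E2; NADH fluorescence (360/450 nm) read 5 times over 30-s intervals, last minus first.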
Starred values were filed as active, the others as inactive; ? = inconclusive; & = joins results of further samples. % is set by controls: 0 for no effect and ±100 for the full control effect; potency is the fitted concentration of half-maximal effect.

HPGD block | SMILES
31.6µM* | CCOC(=O)CNC(c1ccccc1)c1cc(Br)ccc1NC(=O)CCN1CCOCC1 (centres undefined)
-11.5% | COc1cc(C2N=C(c3ccccc3)NO2)cc(Br)c1O (centres undefined)
8.5% | NC(=O)CSc1c[nH]c2ccccc12
-1.9% | CSCC[C@@H](C(=O)Nc1ccc2c(c1)OCCO2)N1Cc2ccccc2C1=O
-11.8% | COc1ccc(-c2cc(CNC(C)=O)on2)cc1
? | O=C(O)c1cc(N2C(=O)C3CC=CCC3C2=O)ccc1NCc1cccnc1 (centres undefined)
-12.7% | COc1ccc(C2/C=C\[C@H](O[Si](C)(C)C(C)(C)C)[C@H](C(C)C)CC(=O)N2Cc2ccccc2)cc1 (some centres undefined)
-1.5% | Cc1ccc(CSc2nnc(-c3cccc(S(=O)(=O)N4CCOCC4)c3)n2CC(C)C)cc1
-8.8% | CN(C)Cc1nc2c([nH]1)c(=O)n(C)c(=O)n2C
-13.3% | CCCCC(=O)N/N=C/c1cc([N+](=O)[O-])ccc1N1CCOCC1
-8.5% | CN(C)S(=O)(=O)N1CCN(C(=O)c2ccccc2Cl)CC1
-2.4% | C=CCc1cccc(/C=N/c2nc3ccccc3n2CC)c1O
-5.0% | COc1ccc(-c2nn(-c3ccccc3)cc2C#N)cc1
-7.1% | Cc1cc(C)n(-c2nncn2/N=C/c2ccccc2F)n1
? | COc1cccc2sc(Nc3nnc(-c4cccs4)o3)nc12
-3.4% | CC(C)=CCC/C(C)=C/CN(CC(C)O)CC(C)O (centres undefined)
-20.8% | Cc1ccc2c(c1)cc(C)c1nnc(SCC(=O)NCc3ccco3)n12
-14.5% | CC(C)(C)C(=O)NC(=S)Nc1cc(C(=O)O)ccc1Cl
-13.5% | CN1CCN(/N=C/c2ccc(Cl)c(Cl)c2)CC1
-5.3% | CC(C)[C@H](NC(=O)c1ccccc1)C(=O)OCC(=O)N1CC(=O)Nc2ccccc21
-25.4% | CCOC(=O)c1ccccc1NC(=S)N1CCCCC1
-6.8% | COc1cc(C(c2nnnn2C(C)(C)C)N2CCN(c3nc4ccccc4s3)CC2)ccc1O (centres undefined)
-0.9% | CN1/C(=C\C=C(/C#N)C(=O)Nc2ccc(Cl)cc2)C(C)(C)c2ccccc21
-13.5% | Cc1ccc(-c2cc(C(=O)NCc3ccco3)no2)cc1
-15.2% | CCC(=O)Nc1c(C)nn(-c2ccc(C)c(C)c2)c1C
-9.3% | N[C@@]1(C(=O)O)CO[C@H]2[C@H](C(=O)O)[C@H]21
-15.0% | CCOC(=O)c1cc2ccccc2nc1C
-13.5% | CCC(C)NC(=O)C1CCCCN1S(=O)(=O)c1ccc(F)cc1 (centres undefined)
-29.3% | Cc1ccc(CNC(=O)c2cnccn2)cc1
-10.5% | Cc1ccnc(NC(=O)CCCc2ccccc2)c1
-6.8% | Cc1cc(C(=O)Nn2c(-c3ccc(Br)cc3)nc3ccccc3c2=O)ccc1[N+](=O)[O-]
-3.5% | CCNC(=S)Nc1cccc(Cl)c1C
? | Cc1ccc(-c2nc3ccccc3[nH]2)cc1N
-22.7% | Cc1cccc(CSc2nc3c(cc2C#N)CCC3)c1
-28.1% | CCOC(=O)C1CCCN(C(=O)/C=C/c2cccc([N+](=O)[O-])c2)C1 (centres undefined)
-19.4% | CCOc1cc(-c2c(C#N)c(N)nc3c2CCc2ccccc2-3)ccc1O
-5.7% | COc1cc2c(cc1OC)C(c1cccs1)N(C(=O)C(C)C)CC2 (centres undefined)
-10.7% | Cc1cc(-n2nc(C)cc2C)n2ncc(-c3ccccc3)c2n1
25.1µM* | N#Cc1c(NC(=O)C2CC(c3ccccc3O)=NO2)sc2c1CCC2 (centres undefined)
? | Cc1ccc(-n2nc(C)c3c(C)c(CCC(=O)NC(C)c4ccccc4)c(C)nc32)cc1 (centres undefined)
-11.6% | Cc1c(/C(O)=C2\C(=O)C(=O)N(CCN(C)C)C2c2ccco2)cnn1-c1ccccc1 (centres undefined)
-5.5% | COc1ccc(Cc2nnc(NC(=O)CSc3ccccc3)s2)cc1OC
-5.3% | COCCNC(=O)c1ccc(CS(=O)(=O)c2ccc(C)cc2)o1
-15.4% | Cc1ccc(S(=O)(=O)NCc2cccnc2)s1
-8.1% | CN(C)c1ccc(C2C3C(=O)NC(=O)C3ON2c2ccc(Cl)cc2)cc1 (centres undefined)
-0.3% | COc1ccc(-c2csc(C)n2)cc1OC
-12.1% | O=C1CC2(CCCCC2)Oc2ccc(O)cc21
-3.5% | CC(C)Sc1nc2c(cnn2-c2ccccc2)c(=O)[nH]1
12.6µM* | N=C1S/C(=C\c2cn[nH]c2-c2ccc(F)cc2)C(=O)N1c1ccccc1F
-6.1% | CCC[C@@H]1C[C@@H](C(=O)N[C@@H]([C@H]2O[C@H](SC)[C@H](O)[C@@H](O)[C@H]2O)[C@@H](C)O)N(C)C1

Quoted from the listing, 18 compounds:
HPGD block | SMILES
-9.3% | N[C@@]1(C(=O)O)CO[C@H]2[C@H](C(=O)O)[C@H]21
-15.0% | CCOC(=O)c1cc2ccccc2nc1C
-13.5% | CCC(C)NC(=O)C1CCCCN1S(=O)(=O)c1ccc(F)cc1 (centres undefined)
-29.3% | Cc1ccc(CNC(=O)c2cnccn2)cc1
-10.5% | Cc1ccnc(NC(=O)CCCc2ccccc2)c1
-6.8% | Cc1cc(C(=O)Nn2c(-c3ccc(Br)cc3)nc3ccccc3c2=O)ccc1[N+](=O)[O-]
-3.5% | CCNC(=S)Nc1cccc(Cl)c1C
? | Cc1ccc(-c2nc3ccccc3[nH]2)cc1N
-22.7% | Cc1cccc(CSc2nc3c(cc2C#N)CCC3)c1
-28.1% | CCOC(=O)C1CCCN(C(=O)/C=C/c2cccc([N+](=O)[O-])c2)C1 (centres undefined)
-19.4% | CCOc1cc(-c2c(C#N)c(N)nc3c2CCc2ccccc2-3)ccc1O
-5.7% | COc1cc2c(cc1OC)C(c1cccs1)N(C(=O)C(C)C)CC2 (centres undefined)
-10.7% | Cc1cc(-n2nc(C)cc2C)n2ncc(-c3ccccc3)c2n1
25.1µM* | N#Cc1c(NC(=O)C2CC(c3ccccc3O)=NO2)sc2c1CCC2 (centres undefined)
? | Cc1ccc(-n2nc(C)c3c(C)c(CCC(=O)NC(C)c4ccccc4)c(C)nc32)cc1 (centres undefined)
-11.6% | Cc1c(/C(O)=C2\C(=O)C(=O)N(CCN(C)C)C2c2ccco2)cnn1-c1ccccc1 (centres undefined)
-5.5% | COc1ccc(Cc2nnc(NC(=O)CSc3ccccc3)s2)cc1OC
-5.3% | COCCNC(=O)c1ccc(CS(=O)(=O)c2ccc(C)cc2)o1

The results go on.
HPGD block | SMILES
? | O=C(Nc1ccc2c(c1)oc1ccccc12)c1ccncc1
-6.7% | O=C(c1cnccn1)N1CCC2(CCCN(Cc3ccncc3)C2)CC1
-8.1% | COCc1cc(=O)[nH]c(Sc2c(-c3ccccc3)c3ccc(Cl)cc3[nH]c2=O)n1
? | Cc1ccc(C)c2sc(NC(=O)c3ccc(N4C(=O)CCC4=O)cc3)nc12
-0.3% | Cc1cccc2nc(CSc3nc4ccc([N+](=O)[O-])cc4[nH]3)cn12
-7.8% | CCCCC(=O)Nc1ncc2c(n1)CC(C)(C)CC2=O
-4.7% | Cc1nnc(SCc2ccccc2C#N)n1-c1ccccc1
17.8µM* | CC(OC(=O)CNC(=O)c1ccc2c(c1)OCO2)C(=O)NCCC1=CCCCC1 (centres undefined)
-12.8% | Cc1ccccc1N1C(=O)[C@@H]2Cc3ccccc3CN2C1=O
-8.3% | CN(CC(=O)Nc1nc2ccccc2s1)S(=O)(=O)c1ccc(Cl)cc1
-14.7% | CC1CCC(NC(=O)COc2ccc(C(=O)c3ccccc3)cc2)CC1 (centres undefined)
-12.2% | O=C(O)P(=O)(O)O
-14.7% | Cc1nc2cccc(C)n2c(=O)c1Cl
-9.2% | COc1ccccc1CC1(C)NC(=O)N(CC(=O)N2CC(C)OC(C)C2)C1=O (centres undefined)
-4.1% | COC(=O)Cc1[nH]nc2c1C1(CCSCC1)C(C#N)=C(N)O2
-28.4% | Cc1ccc(-c2nn(CC(=O)N(C)C)c(=O)c3ccccc23)cc1S(=O)(=O)N(C)C
-6.4% | COc1ccc(S(=O)(=O)N2CC(C)N(S(=O)(=O)c3ccc(OC)cc3)CC2C)cc1 (centres undefined)
-1.4% | CC(C)Cc1ccc(C(C)C(=O)N2CCOCC2)cc1 (centres undefined)
-6.7% | CC(C(=O)NCC1CCCO1)n1cccc1C(=O)c1ccccc1 (centres undefined)
-4.2% | Cc1nc(Cl)sc1C(=O)Nc1ccc(Cl)cc1
-15.8% | COc1cc(Cl)c(C)cc1NC(=O)CCCn1c(=O)oc2ccccc21
? | CCO/C(C)=N/n1c2nc3ccccc3nc2c2c(=O)n(Cc3ccccc3Cl)c(C)nc21
? | COc1cc(OC)cc(-c2cc3nc(C)c(CCC(=O)O)c(C)n3n2)c1
-9.6% | CC(=O)Nc1ccc(S(=O)(=O)N(C)CC(=O)NC2=NCCS2)cc1
1.6% | CCCCN1C(=O)/C(=C2/C=CC=CN2C)SC1=S
-7.2% | O=S(=O)(NCc1ccccc1)c1ccc(S(=O)(=O)N(Cc2ccccn2)Cc2ccco2)cc1
25.1µM* | CCn1c(-c2csc3c2CCCC3)n[nH]c1=S
-24.7% | Cc1nc2ccc(NC(=O)c3sccc3C)cc2s1
-11.6% | Cc1c(NC2=CC(=O)CC(C)(C)C2)ccc([N+](=O)[O-])c1C
0.1% | CCS(=O)(=O)N1CCCC(C(=O)NC2CCCCC2)C1 (centres undefined)
-4.8% | CCOC(=O)CSc1ncc(-c2cccc(Cl)c2)cn1
-4.3% | C=CCOc1c(Br)cc(C2NC(=O)NC(C)=C2C(C)=O)cc1OCC (centres undefined)
-3.6% | CC(c1ccco1)N(C(=O)c1ccccc1NS(=O)(=O)c1ccc(Cl)cc1)c1ccccn1 (centres undefined)
-7.5% | COC(=O)NCC1(C)CC(NC(=O)OC)CC(C)(C)C1 (centres undefined)
-10.4% | O=C(c1ccncc1)N1CCN(C(=O)c2ccncc2)CC1
2.0% | CCc1cc(C(c2ccccn2)N2CCN(C)CC2)c(NC(=O)c2ccccc2)s1 (centres undefined)
-2.8% | CCOc1ccc(N2C(=O)CC(N3CCN(C4CCc5ccccc5C4)CC3)C2=O)cc1 (centres undefined)
-4.0% | CC(C)OC(=O)c1ccc(NC(=O)c2ccco2)cc1
-16.3% | Cc1ccc(C(=O)C2CCN(CC(=O)Nc3nc(C)cs3)CC2)cc1
? | CN1CCN(CC(=O)Nc2nnc(-c3cccs3)s2)CC1
-7.5% | CNC(=O)Nc1ccccc1C(=O)NCc1ccccc1
-23.6% | c1ccc(-c2nn3c(C4CCCCC4)nnc3s2)nc1
-1.0% | CC1CN(C(=O)CSc2nnc(-c3ccc(Cl)cc3)n2C)CC(C)O1 (centres undefined)
-8.6% | CCOC(=O)N1CCN(C2CC(=O)N(c3ccc(Oc4ccccc4)cc3)C2=O)CC1 (centres undefined)
-13.1% | CCC(C)NS(=O)(=O)c1ccc(OC)c(Cl)c1Cl (centres undefined)
? | COc1ccc(CNc2ccc3c(c2)ncn3-c2ccccc2OC)cc1
? | N#Cc1nc(-c2cccs2)oc1NCc1ccco1
10.8% | CCOC(=O)C1CCCN(Cc2c(Cl)cccc2Cl)C1 (centres undefined)
-11.1% | C=CCN(CC=C)CC(O)Cn1c2ccccc2c2ccccc21 (centres undefined)
-12.4% | COC(=O)c1ccccc1NC(=O)COC(=O)c1cccnc1

Remaining list, next part
HPGD block | SMILES
? | Cc1cccc(C2=NN(c3ccc(Br)cc3)[C@@H](C(=O)N3CCOC3=O)[C@@H]2C)c1
-14.2% | O=C(NCc1ccc(Cl)cc1)c1noc2c1CCCCC2
-4.3% | COc1ccc(Oc2coc3cc(OC(=O)N4CCOCC4)ccc3c2=O)cc1
-14.1% | CCOc1ccc(CCNC(=O)C2=C(C)C(=O)OC23CCC(C)CC3)cc1 (centres undefined)
-14.2% | NC(=O)c1ncn(C2OC(CO)C(O)C2O)c1N (centres undefined)
-2.9% | COC(=O)c1cc(Br)ccc1OC(=O)c1cccnc1
-9.9%&-1.9% | COC(=O)c1ccc(C(NC(=O)OCc2ccccc2)/C(F)=C/[C@@H](C)C(=O)NCc2ccc(-c3ccccc3)cc2)cc1 (some centres undefined)
-13.8% | COc1ccc(-c2noc(CCC(=O)Nc3cc(OC)ccc3OC)n2)cc1
-10.4% | Fc1cc(Br)ccc1Nc1nc2ccccc2n2nnnc12
-4.5% | CCOC(=O)n1c(SCC(=O)N(CC)CC)nc2ccccc21
-20.8% | C/C(=N/NC(=O)c1ccc2c(c1)OCO2)c1cccc(NC(=O)C(C)(C)C)c1
-20.4% | CN(C)[C@H]1C(=O)C(C(=O)NCN2CCCC2)=C(O)[C@]2(O)C(=O)C3=C(O)c4c(O)cccc4[C@@](C)(O)[C@H]3C[C@@H]12
1.2% | CCC(CO)NC(=O)c1cccc(S(=O)(=O)N2c3ccccc3CC2C)c1 (centres undefined)
? | O=[N+]([O-])c1ccccc1S(=O)(=O)Oc1ccc(C(=S)N2CCOCC2)cc1
0.1% | O=P1(Nn2cnnc2)C=C(c2ccccc2)OC(c2ccccc2)=C1
-2.2% | CC(=O)Nc1ccc(S(=O)(=O)N2CCc3c(Cl)cccc3C2)cc1
-3.9% | CC(C)c1ccc(NC(=O)CSc2nc(-c3ccccc3F)nc3nc[nH]c23)cc1
? | COc1ccccc1Nc1nc(-c2sc(NC(=O)c3ccccc3)nc2C)cs1
-22.1% | Clc1ccccc1Cn1nnc2c(NCC3CC3)ncnc21
-10.4% | Cc1nc(SCC(=O)Nc2ccnc3ccccc23)n[nH]1
-14.7% | Clc1ccc(C2=Nn3c(nnc3-c3cccnc3)SC2)s1

Single values from the entries so far:
Fc1cc(Br)ccc1Nc1nc2ccccc2n2nnnc12 in HPGD block = -10.4%
CCOc1ccc(CCNC(=O)C2=C(C)C(=O)OC23CCC(C)CC3)cc1 (centres undefined) in HPGD block = -14.1%

Not all compounds are listed. The share of hits here may be higher or lower than overall.
